PrP UTR inh: suppresses PrP 5' UTR mRNA reporter expression; cell-based PrP 5' UTR mRNA reporter, plate reader; inhibition, % (concentration not given with the values); 0.35% of 340,000 active;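 active = every replicate at 50% or more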;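 note: 0 = median of the neutral control wells; tested in H4 reporter cells; numbers are from one replicate; inactives centre near -14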
RN4220 kill: S. aureus RN4220 growth inhibition; inhibition, % (no concentration beside the values); AID 1259311; 0.33% of 330,000 active; OD600, 16 h;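 active = z-score of -3 or lower and OD600 up to 0.18 on both plates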;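 note: plate controls were untreated cells for no effect and reference antibiotic for full effect; stock transfer was 100 nL into about 80 µL; one replicate is shown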
Bead autofluor: counter-screen for toxin protease inhibitors: compound fluorescence | 3.1% of 360,000 active | compound autofluorescence counterscreen, microsphere flow cytometry; active compounds read high | fluorescence intensity (concentration not given with the values);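 active = at least 3 SD above the mean of all compounds, about 16000 in these data; inconclusive = too few beads counted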;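 note: 100 nL of 1 mM stock went into each well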
Sa ugtP lethal: growth inhibition of S. aureus ugtP deletion strain; S. aureus RN4220 ugtP deletion, OD600 growth, 16 h; some inactives read as strong as hits; growth inhibition, % (no concentration beside the values); 0.54% of 330,000 active;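 active = z-score under -3 and OD600 up to 0.15 on both plates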;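 note: plate controls were untreated wells for no effect and antibiotic for full effect; wells of about 80 µL received 100 nL stock; the first replicate is given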
BJeLR viability: BJeLR cell viability loss. BJeLR (HRASV12) viability, CellTiter-Glo ATP luminescence, 48 h; reference of the scale not given here. inhibition, % (test concentration not listed). 0.17% of 300,000 active. AID 1554;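 active = replicate mean above 50%; inconclusive = above 50% but judged a plate artefact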;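 note: 50 nL library stock added to about 25 µL; numbers are from one replicate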
Mtb hypoxia rep: Mtb hypoxia fluorescent reporter inhibition; M. tuberculosis hypoxia-regulated fluorescent reporter, fluorescence; fluorescence inhibition, % (concentration not given with the values); 0.1% of 300,000 active;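 active = 35 to 45% if threefold the growth effect, above 45% if 1.5-fold the growth effect; inactive = the rest, general growth blockers included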;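 note: wells of about 50 µL received 100 nL stock; 0% = vehicle wells and 100% = reference inhibitor wells; whole bacteria with a GFP reporter of the hypoxia response; strong numbers were not always called active; many hits fall short of the cut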
Mtb hypoxia rep growth: also measured in Mtb hypoxia rep; calls as there; growth inhibition, %; measured here: M. tuberculosis growth (absorbance);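 0% = vehicle and 100% = reference antibiotic; read after six days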
* hit, by the source's call; ? = inconclusive; / = no result given. An unsorted share of the library (roughly 4% active in at least one column).

SMILES	PrP UTR inh	RN4220 kill	Bead autofluor	Sa ugtP lethal	BJeLR viability	Mtb hypoxia rep	Mtb hypoxia rep growth
CCN1C(=O)C2C(c3ccc(Cl)cc3)N3C(=O)CN(CCOC)C(=O)[C@@]3(C)C2C1=O (stereo partly drawn)	/	4.7	/	-0.7	/	3.4	4.5
Cc1c(Cl)c(-c2n[nH]c(=S)n2CC(C)C)nn1C	-19.2	-0.5	9859	0.7	6.9	0.6	2.0
COc1cccc(/C=N/n2c(-c3n[nH]c4c3CCC4)n[nH]c2=S)c1OC	-18.2	/	5276	/	-6.1	/	/
C/C(=N\Nc1nc2ccccc2nc1C)c1ccccc1O	-14.2	/	3534	/	-0.4	/	/
O=C(CN1C(=O)S/C(=C\c2ccccc2)C1=O)NCCCn1ccnc1	-22.7	2.5	6881	3.3	8.9	11.0	1.0
Cc1c(CCC(=O)O)c(=O)oc2cc(OCc3cccc(F)c3)ccc12	-10.4	2.4	3708	-0.1	-5.9	0.3	-6.3
O=C1C(=O)N(CCO)C(c2ccccc2)/C1=C(\O)c1ccccc1 (stereo not drawn)	-8.7	1.9	5467	-2.4	-0.5	/	/
O=c1[nH]c(=S)[nH]c(O)c1/C=C1\C=Nc2ccccc21	3.4	-0.2	3665	0.1	/	-11.5	7.5
CCCc1nc2c(c(=O)c3ccccc3n2C)c(=O)n1-c1ccc(F)cc1	-14.4	2.9	2033	3.1	-4.6	8.2	6.1
Cc1ccccc1NC(=O)C1CCN(c2cnccn2)CC1	-9.5	5.1	21599*	-4.7	-2.0	7.6	3.4

Reprinted from the part before: two compounds, followed by the next part.
SMILES	PrP UTR inh	RN4220 kill	Bead autofluor	Sa ugtP lethal	BJeLR viability	Mtb hypoxia rep	Mtb hypoxia rep growth
CCCc1nc2c(c(=O)c3ccccc3n2C)c(=O)n1-c1ccc(F)cc1	-14.4	2.9	2033	3.1	-4.6	8.2	6.1
Cc1ccccc1NC(=O)C1CCN(c2cnccn2)CC1	-9.5	5.1	21599*	-4.7	-2.0	7.6	3.4
CCOC(=O)CSc1nc(=O)n2ccc(C)cc2n1	-12.4	3.8	4608	8.4	-5.1	5.4	-2.0
Cc1cc(OCC(=O)NCC(O)c2ccccc2)c2c3c(c(=O)oc2c1)CCCC3 (stereo not drawn)	-11.3	1.6	5214	2.5	3.4	5.6	22.0
CSCCC(NC(=O)c1ccccc1Br)C(=O)Nc1ccc(C)cc1 (stereo not drawn)	-8.6	2.2	2220	-0.5	-5.3	5.3	0.6
CN(C)C(CNC(=O)CCc1nc2cc(Cl)ccc2n(Cc2ccccc2)c1=O)c1ccccc1 (stereo not drawn)	-4.9	1.6	6097	3.3	-10.0	5.7	7.4
CC(=O)Nc1ccc(Oc2cncc(Cl)c2)nc1	-17.2	5.2	5513	6.4	-3.9	6.6	14.5
CCN(CC)CCCNC(=O)c1cn(CC)c2ccc(S(=O)(=O)N3CCc4ccccc4C3)cc2c1=O	-4.9	3.7	4121	3.2	2.8	1.0	2.9
CC(=O)c1ccc(NC(=O)CSc2nc3[nH]ncc3c(=O)[nH]2)cc1	4.0	1.7	?	5.0	-0.4	1.2	-1.0
COc1cc(/C=N\NC(=O)C2COc3ccccc3O2)cc(OC)c1O (stereo not drawn)	-6.8	/	4041	/	-0.8	/	/
O/N=C1/C(=C\c2ccccc2)N2CCC1CC2	2.3	/	19798*	/	-6.4	/	/
O=C(CCCN1C(=O)c2ccccc2C1=O)Nc1cccc(S(=O)(=O)NC2=NCCC2)c1	-31.8	5.2	6479	3.3	-1.0	18.5	1.5
CCOc1cccc2sc(N(CCN(CC)CC)C(=O)c3cccc(N4C(=O)CCC4=O)c3)nc12	1.6	5.9	/	2.3	2.3	7.8	1.0
O=C(CNC(=O)c1ccco1)Nc1ccc(S(=O)(=O)N2CCCC2)cc1	-24.2	4.3	21490*	-5.2	-0.5	6.2	7.6
O=C(NCc1ccncc1)c1nc(-c2ccc(C(F)(F)F)cc2)no1	-5.8	-1.6	2426	64.6	6.6	-0.7	-5.1
COc1ccc(Cl)cc1NS(=O)(=O)c1c(C)nc2sccn2c1=O	-7.6	5.3	5936	13.7	8.6	-1.0	-1.1
OCCOCCn1c(C2CCCN2c2nc(-c3ccc(F)cc3)cs2)nc2cc(Cl)c(Cl)cc21 (stereo not drawn)	-20.6	-12.8	2720	-8.9	-5.6	-1.1	4.9
Cc1ccccc1NS(=O)(=O)c1ccc(OCC(=O)NCc2ccccn2)cc1	30.7	11.6	3954	3.6	6.8	3.1	3.5
O=c1cc(-c2ccccc2)nc(N2CCN(Cc3ccc4c(c3)OCO4)CC2)[nH]1	-19.7	4.6	4871	-0.2	/	/	/
NC(=O)C1CCN(CC(=O)NC(=O)NC2CCCC2)CC1	-11.7	4.0	4096	1.5	5.1	4.1	-3.1
Fc1ccccc1COc1cccc2cccnc12	-33.6	/	2953	/	-14.5	/	/
COc1ccc(-c2nc3cc(C)ccn3c2NC(=O)c2c(F)cccc2Cl)cc1	-7.9	-5.5	3210	-9.8	5.9	0.4	-0.6
COc1ccccc1CNCc1ccc(OC)c2ccccc12	-24.9	0.3	5683	-7.7	-4.9	2.0	3.1
COc1ccc(C(=O)NCCC(=O)N2CCC3(CC2)NCCc2[nH]cnc23)cc1	-16.9	4.4	4714	6.2	-12.5	3.5	-1.8
COc1cccc(Nc2nc(-c3sc(C)nc3C)cs2)c1	-42.1	-2.5	4000	-19.6	-9.1	-3.1	3.0
CNS(=O)(=O)c1cc(S(=O)(=O)NC)c2cccc3c2c1NC3=O	-23.7	2.6	4390	-1.8	1.6	-3.1	0.5
CN(CC(=O)Nc1ccc(F)c(F)c1F)C(=O)C1CCC1	-13.1	4.4	5095	4.4	-13.6	4.2	-3.4
CCOP(=O)(OCC)C(C#N)=C1SCN(c2ccc(Cl)cc2)CS1	-19.2	10.4	2745	-0.5	-5.7	/	/
CCOC(=O)c1c(S(=O)(=O)Nc2ccc(C)c(F)c2)c(C)n(C)c1C	5.9	-1.0	5765	-0.1	-4.9	-4.0	0.6
COC(=O)c1c(NC(=O)COC(=O)c2ccc(Cl)cc2[N+](=O)[O-])sc2c1CCCCC2	-21.6	5.8	2136	-15.5	1.6	15.3	10.4
CC(C)[C@H](NC(=O)c1ccco1)C(=O)OCc1cc(=O)n2c(n1)sc1ccccc12	-11.9	3.8	3255	3.8	4.4	8.8	12.2
O=C1CC(c2ccccc2)CC(=NCCO)/C1=C(\O)CCCN1C(=O)c2ccccc2C1=O (stereo not drawn)	-13.3	/	3406	/	-1.7	/	/

Sorted by heavy-atom count (falling): part of the list above.
SMILES	PrP UTR inh	RN4220 kill	Bead autofluor	Sa ugtP lethal	BJeLR viability	Mtb hypoxia rep	Mtb hypoxia rep growth
O=C1CC(c2ccccc2)CC(=NCCO)/C1=C(\O)CCCN1C(=O)c2ccccc2C1=O (stereo not drawn)	-13.3	/	3406	/	-1.7	/	/
COC(=O)c1c(NC(=O)COC(=O)c2ccc(Cl)cc2[N+](=O)[O-])sc2c1CCCCC2	-21.6	5.8	2136	-15.5	1.6	15.3	10.4
CC(C)[C@H](NC(=O)c1ccco1)C(=O)OCc1cc(=O)n2c(n1)sc1ccccc12	-11.9	3.8	3255	3.8	4.4	8.8	12.2
O=c1cc(-c2ccccc2)nc(N2CCN(Cc3ccc4c(c3)OCO4)CC2)[nH]1	-19.7	4.6	4871	-0.2	/	/	/
CCOC(=O)c1c(S(=O)(=O)Nc2ccc(C)c(F)c2)c(C)n(C)c1C	5.9	-1.0	5765	-0.1	-4.9	-4.0	0.6
CCOP(=O)(OCC)C(C#N)=C1SCN(c2ccc(Cl)cc2)CS1	-19.2	10.4	2745	-0.5	-5.7	/	/
CNS(=O)(=O)c1cc(S(=O)(=O)NC)c2cccc3c2c1NC3=O	-23.7	2.6	4390	-1.8	1.6	-3.1	0.5
CN(CC(=O)Nc1ccc(F)c(F)c1F)C(=O)C1CCC1	-13.1	4.4	5095	4.4	-13.6	4.2	-3.4
Fc1ccccc1COc1cccc2cccnc12	-33.6	/	2953	/	-14.5	/	/

(more compounds)
SMILES	PrP UTR inh	RN4220 kill	Bead autofluor	Sa ugtP lethal	BJeLR viability	Mtb hypoxia rep	Mtb hypoxia rep growth
Cc1ccc(-c2nc(-c3ccccn3)sc2CC(=O)O)cc1	-21.6	1.7	4749	-1.2	11.9	8.0	3.1
Cc1cccc(S(=O)Cc2ccc(C(=O)N3CCN(C(=O)c4ccco4)CC3)o2)c1 (stereo not drawn)	-4.2	5.0	5447	8.1	-7.7	5.5	5.2
O=C(COC(=O)c1ccccc1-n1cnnn1)c1ccc(F)cc1	-36.4	6.5	4433	12.9	-3.0	7.3	-2.0
COCC(=O)Nc1nc2ccccc2s1	-34.7	0.4	4005	7.8	1.3	/	/
O=C(COC(=O)c1cc(Br)ccc1O)NNC(=O)c1ccc([N+](=O)[O-])cc1	-2.6	2.9	6224	-0.1	-2.5	3.4	11.3
CN(C)c1cccc(C(=O)Nc2nc3ccccc3[nH]2)c1	-46.0	-2.1	5034	-6.8	-2.0	0.7	-5.8
CCOCCCNC(=O)COC(=O)/C=C/c1ccc(S(=O)(=O)N2CCc3ccccc32)cc1	-38.3	7.0	4602	14.5	-4.0	12.6	10.3
O=C(c1ccccc1Cc1ccccc1)N1CCN(S(=O)(=O)c2ccc(F)cc2)CC1	-25.5	2.1	4671	12.1	3.3	2.2	1.0
CCOc1ccccc1NC(=O)CSc1nc2c(c(=O)n(C)c(=O)n2C)n1C	-11.8	4.6	3757	9.8	8.1	16.8	6.6
COc1ccc(S(=O)(=O)N(C)C[C@H]2Oc3c(NC(=O)CCC(F)(F)F)cccc3C(=O)N([C@H](C)CO)C[C@@H]2C)cc1	-16.5	-13.1	3467	-0.5	/	11.4	4.3
Cc1cccc(C)c1OCC(=O)Nc1oc(-c2ccccc2)c(-c2ccccc2)c1C#N	-7.4	10.1	2560	13.5	4.3	5.8	2.2
COC(=O)C(NC(C)=O)(Nc1ccccc1)C(=O)OC	-21.7	-2.5	7196	0.1	-7.1	9.0	-4.8
COCCn1c(=NC(=O)CCS(=O)(=O)c2ccccc2)sc2ccccc21	38.9	6.2	6009	7.1	-2.1	8.2	2.0
Cc1ccc(CN(Cc2ccco2)C(=S)NCC(=O)NC2CC2)cc1	-8.2	2.1	4158	2.9	0.5	7.3	2.0
O=C(CCN1C(=O)/C(=C/c2ccc(F)cc2)SC1=S)NNC(=O)c1ccncc1	-24.4	4.2	4415	6.3	-6.4	3.9	0.5
O=C(NC1CCCCC1)C(c1ccco1)N(Cc1cccnc1)C(=O)C1COc2ccccc2O1 (stereo not drawn)	-14.3	3.0	6661	-3.9	0.7	15.5	6.1
O=C1C(Cc2ccccc2)Nc2ncnc(N3CCN(c4ccccc4)CC3)c2N1Cc1ccccc1 (stereo not drawn)	-23.1	4.9	3765	-3.7	-6.7	-0.3	9.0
Cc1cc(Cl)c2oc(C(=O)N3CCN(C4CCS(=O)(=O)C4)CC3)c(C)c2c1 (stereo not drawn)	-3.3	3.8	5284	-2.5	-5.3	5.9	8.0
COc1cc2c(cc1NC(=O)COC(=O)Cn1cnc3ccccc31)oc1ccccc12	-23.6	/	2280	/	-4.6	/	/
CCC(Sc1nc2ccccc2o1)C(=O)Nc1nnc(C)s1 (stereo not drawn)	-22.6	1.7	8047	8.8	9.7	13.4	-6.5
CCO/C=C/C(O)(CNC(=O)c1ccc(C(C)(C)C)cc1)C(F)(F)F (stereo not drawn)	-21.0	2.7	2519	-10.8	-0.3	10.1	2.0
O=C(NCCCCNC(=O)c1ccccc1Cl)c1ccccc1Cl	-2.1	1.5	4226	2.1	9.8	-16.5	6.0
CC(=O)c1c(N2CCOCC2)nc(=S)n(-c2cc(C)ccc2C)c1C	-19.0	2.1	6409	-1.7	-4.1	2.0	17.3
O=Cc1cccnc1SCc1ccccc1	-0.9	28.9	4237	6.2	37.1	5.5	2.6
C=CCN(CC=C)C(=O)Nc1cc(Cl)ccc1OC	-7.7	2.1	11442	-2.3	-1.6	4.4	13.8
CC(C)NCC(O)c1ccc(C2CCCC2)cc1 (stereo not drawn)	-12.1	2.1	7958	12.7	-13.0	15.7	13.4
CN(CC(=O)Nc1cccc(F)c1)C(=O)CN1C(=O)C2CC=CCC2C1=O (stereo not drawn)	-8.4	3.5	?	1.4	3.0	-1.0	-0.5
